UCH37 inh: human UCH37 deubiquitinating enzyme inhibition | Q9Y5K5 | purified proteasome/UCH37, Ub-AMC cleavage fluorescence | inhibition, % (no concentration beside the values) | hit rate 0.33% among 330,000;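 active = mean of two replicates above 20%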;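 also: 0% = compound-free wells with enzyme and 100% = wells lacking proteasome; stock transfer was 100 nL into about 20 µL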
Target sequence (Q9Y5K5 whole entry, looked up): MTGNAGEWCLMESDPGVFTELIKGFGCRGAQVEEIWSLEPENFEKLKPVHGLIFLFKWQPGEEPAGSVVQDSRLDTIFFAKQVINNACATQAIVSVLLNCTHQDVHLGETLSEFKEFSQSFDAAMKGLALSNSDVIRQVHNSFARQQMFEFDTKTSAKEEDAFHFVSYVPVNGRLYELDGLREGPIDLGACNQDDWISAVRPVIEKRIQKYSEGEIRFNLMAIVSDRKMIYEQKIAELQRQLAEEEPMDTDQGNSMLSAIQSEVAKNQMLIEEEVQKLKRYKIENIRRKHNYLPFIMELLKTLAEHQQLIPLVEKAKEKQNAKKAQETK
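Material: Human UCH37 enzyme supplied as purified proteasome complex | Schedule: 30 min preincubation with enzyme, 25 min cleavage at room temperature | Detection: AMC fluorescence 355/460 nm | Measure: % inhibition of Ub-AMC cleavage fluorescence | Controls: Wells without proteasome as full block, compound-free enzyme plus substrate as uninhibited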
AF4-AF9 inh: MLL-AF4/AF9 protein interaction inhibition; AlphaScreen, biotin-AF4 peptide binding to FLAG-AF9; inhibition, % at 10 µM; hit rate 0.47% among 350,000; AID 651704;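 active = every replicate reaching a set inhibition limit, whatever the replicate mean, cut at about 25% in these data; inconclusive = mean inhibition reaches that limit but some replicates miss it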;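 also: 0% = plate neutral control median and 100% = total signal loss; the record names both 10 and 1 µM as test concentration; the first replicate is given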
HNF4A DNA FP: change in binding of human HNF4 alpha to DNA. P41235. hit rate 0.3% among 360,000. activity change, % at 10 µM. HNF4a-FITC DNA binding, fluorescence polarization, 1 h; in the data active = activity change above about 30%, passing the limit was not always enough;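 also: controls were the assay level and a saturating level of protein; the project sought stronger binding though the title names inhibitors; some compounds called inactive have numbers as strong as hits; positive values seem to mean higher polarization but the record does not say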
Target sequence (P41235 whole entry, looked up): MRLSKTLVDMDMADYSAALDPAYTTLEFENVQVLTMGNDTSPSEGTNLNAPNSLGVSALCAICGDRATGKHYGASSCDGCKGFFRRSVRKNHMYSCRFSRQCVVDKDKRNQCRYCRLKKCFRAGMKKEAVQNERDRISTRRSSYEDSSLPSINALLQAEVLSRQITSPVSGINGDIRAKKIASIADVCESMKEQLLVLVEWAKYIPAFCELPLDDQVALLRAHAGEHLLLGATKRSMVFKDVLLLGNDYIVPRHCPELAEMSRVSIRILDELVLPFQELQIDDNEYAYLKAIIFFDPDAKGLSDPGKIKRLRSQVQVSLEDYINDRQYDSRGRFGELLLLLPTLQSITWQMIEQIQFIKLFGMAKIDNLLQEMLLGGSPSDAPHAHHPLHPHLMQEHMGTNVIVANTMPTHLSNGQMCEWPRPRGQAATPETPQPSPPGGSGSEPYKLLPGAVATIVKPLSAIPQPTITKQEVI
Ecoli growth: blocks Escherichia coli growth; OD600 absorbance (concentration not given with the values); OD600, 23 h; active compounds read low; hit rate 0.21% among 330,000; AID 1053175;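 active = OD600 absorbance below the run mean of sample wells minus 3.6 SD, in any replicate, cut at about 0.56 in these data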;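 also: stock transfer was 300 nL into about 60 µL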
RanGTP-Impb inh: inhibitors of RanGTP-importin-beta interaction, primary screen, biochemical, FRET, CFP-Ran, YFP-importin-beta, homogeneous. AID 2216. hit rate 1.1% among 300,000. cell-free CFP-Ran/YFP-importin-beta FRET ratio. inhibition, % (no concentration beside the values);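 active = most replicates above 15%; inconclusive = exactly half above 15%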;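 also: 0% = DMSO wells and 100% = Ran loaded with GDP instead of GTP; wells of about 40 µL received 100 nL stock; the first replicate is given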
Vif TR-FRET: HIV-1 Vif–A3G interaction blockers – biochemical, TR-FRET, GST-Vif 1-94, biotin-A3G peptide, dose response retest, primary screen (AID 1117319). TR-FRET GST-Vif / biotin-A3G peptide binding; higher % means a stronger effect; test concentration not given here; strong numbers were not always called active. inhibition, %; hits with a dose series show IC50 in µM. hit rate 0.57% among 260,000;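 active = above the screen mean plus three standard deviations and confirmed in dose response; inconclusive = results disagree or hit not tested in dose response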;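 also: Vif residues 1-94 fused to GST binding biotinylated APOBEC3G peptide 110-148; 0% = full assay without inhibitor and 100% = GST in place of GST-Vif; retest series ran down from 100 µM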
FGF22 binding: shifts melting point of recombinant human FGF22; Q9HCT0; recombinant FGF22 thermal shift, SYPRO orange fluorescence; percent of sucrose octasulfate shift, DMSO zero; calls only at 9.99 µM; hit rate 1.5% among 340,000;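 active = melting point raised past a set limit in the mean and every replicate; inconclusive = no clear call; three in four hits are not shown here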
Target sequence (Q9HCT0 whole entry, looked up): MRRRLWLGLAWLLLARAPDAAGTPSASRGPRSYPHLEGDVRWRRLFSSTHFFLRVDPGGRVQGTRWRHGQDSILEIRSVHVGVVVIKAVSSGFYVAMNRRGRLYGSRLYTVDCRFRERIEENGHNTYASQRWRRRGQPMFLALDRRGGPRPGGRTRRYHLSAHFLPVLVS
Active calls of the source: *; & = joins results of further samples.

`Cc1ccc(/C=C2/C(=N)N3N=C(CC(=O)N4CCCC4)SC3=NC2=O)cc1` gave UCH37 inh 14, AF4-AF9 inh -1.6, HNF4A DNA FP 3.3, Ecoli growth 0.69, RanGTP-Impb inh 1.0 and FGF22 binding inactive.
Screening Cc1ccc(C2=NC3(CCCCC3)NC2=S)cc1 returned UCH37 inh 6.3, AF4-AF9 inh 1.3, HNF4A DNA FP -2.9, Ecoli growth 0.71, RanGTP-Impb inh 1.6, Vif TR-FRET 3% and FGF22 binding inactive.
For O=C(CCNS(=O)(=O)c1ccc(OC(F)(F)F)cc1)Nc1cccc(S(=O)(=O)N2CCCC2)c1 the results were UCH37 inh 5.7, AF4-AF9 inh 1.3, HNF4A DNA FP -0.1, Ecoli growth 0.68 and FGF22 binding inactive.
CCCC(=O)N(c1ccc2oc(=O)sc2c1)S(=O)(=O)c1cccs1 was read as UCH37 inh 3.9, HNF4A DNA FP 1.7, Ecoli growth 0.72 and Vif TR-FRET 12%.
CN(CC(=O)Nc1ccc(Cl)cc1)C(=O)c1cccc(S(=O)(=O)NCc2ccccc2)c1 was read as UCH37 inh 0.2, AF4-AF9 inh 0.0, HNF4A DNA FP 7.4, Ecoli growth 0.69, RanGTP-Impb inh 3.5 and FGF22 binding inactive.
Cc1ccc(S(=O)(=O)Nc2ccc3c(c2)n(C)c(=O)n3C)c(C)c1 was read as UCH37 inh 6.0, AF4-AF9 inh 0.2, HNF4A DNA FP 6.6, Ecoli growth 0.68, RanGTP-Impb inh inconclusive, Vif TR-FRET -8% and FGF22 binding inactive.
For O=C(Nn1cnnc1)c1ccncc1 the results were UCH37 inh 3.0, HNF4A DNA FP -2.2, Ecoli growth 0.7, RanGTP-Impb inh 0.0 and Vif TR-FRET 8%.
Screening CCN1CCN(Cc2cccc(Oc3ccccc3)c2)CC1 returned UCH37 inh 1.8, AF4-AF9 inh 6.7, HNF4A DNA FP 1.6, Ecoli growth 0.62, RanGTP-Impb inh 6.7, Vif TR-FRET 2% and FGF22 binding inactive.
`Cc1ccc(OCC(=O)Nc2ccc(NC(=O)c3ccccc3)c(C)c2)cc1` gave UCH37 inh 1.2, AF4-AF9 inh -2.4, HNF4A DNA FP 1.0, Ecoli growth 0.76, Vif TR-FRET -3% and FGF22 binding inactive.
`CCN(CC(=O)Nc1ccc(NC(C)=O)cc1)C(=O)c1cccnc1Sc1ccc(C)c(C)c1` gave UCH37 inh -1.2, AF4-AF9 inh -4.6, HNF4A DNA FP -2.8, Ecoli growth 0.71, RanGTP-Impb inh -0.8, Vif TR-FRET -10% and FGF22 binding inactive.

Next section (two carried over from the part before).
`Cc1ccc(OCC(=O)Nc2ccc(NC(=O)c3ccccc3)c(C)c2)cc1` gave UCH37 inh 1.2, AF4-AF9 inh -2.4, HNF4A DNA FP 1.0, Ecoli growth 0.76, Vif TR-FRET -3% and FGF22 binding inactive.
`CCN(CC(=O)Nc1ccc(NC(C)=O)cc1)C(=O)c1cccnc1Sc1ccc(C)c(C)c1` gave UCH37 inh -1.2, AF4-AF9 inh -4.6, HNF4A DNA FP -2.8, Ecoli growth 0.71, RanGTP-Impb inh -0.8, Vif TR-FRET -10% and FGF22 binding inactive.
For COc1cc2oc(=O)ccc2cc1[C@@H](O)[C@@H]1OC(C)(C)OC1(C)C the results were UCH37 inh 1.5, AF4-AF9 inh -2.7, HNF4A DNA FP -2.1, Ecoli growth 0.8 and FGF22 binding inactive.
For CC(C)Nc1ncnc2c1cnn2Cc1ccccc1Cl the results were UCH37 inh 1.3, AF4-AF9 inh -0.2, HNF4A DNA FP 1.1, Ecoli growth 0.63, RanGTP-Impb inh 3.2, Vif TR-FRET -5% and FGF22 binding inactive.
For COc1cc2c3c(c1)C1(C(=O)N3C(C)(C)C=C2C)C(C#N)=C(N)Oc2cc(O)ccc21 (centres undefined) the results were UCH37 inh 0.1, HNF4A DNA FP -0.8, Ecoli growth 0.67, RanGTP-Impb inh -3.3 and Vif TR-FRET 21%.
O=C(CN1/C(=C(/O)c2ccccc2)C(=O)c2ccccc2S1(=O)=O)c1ccccc1 was read as UCH37 inh 5.0, HNF4A DNA FP 0.2, Ecoli growth 0.71, RanGTP-Impb inh -0.8 and Vif TR-FRET -1%.
For Nc1c2c(nc3c1CCCC3)CCCC2 (tested in a mixture with another compound) the results were UCH37 inh 0.9, AF4-AF9 inh 1.9, HNF4A DNA FP -3.2, Ecoli growth 0.66, RanGTP-Impb inh 2.9, Vif TR-FRET 10% and FGF22 binding inactive.
For O=C(Nc1ccc([N+](=O)[O-])cc1)OCCc1ccccn1 the results were UCH37 inh 5.6, AF4-AF9 inh -1.2, HNF4A DNA FP 1.6, Ecoli growth 0.67, RanGTP-Impb inh 8.7 and FGF22 binding inactive.
`COC(=O)c1cc2oc3ccccc3c2n1CC(=O)N1CCCc2ccccc21` gave UCH37 inh -11, HNF4A DNA FP -6.4, Ecoli growth 0.68, RanGTP-Impb inh -0.8 and Vif TR-FRET -21%.
`CCOC(=O)C(C)n1nc(-c2ccccc2)c2ccccc2c1=O` (centres undefined) gave UCH37 inh -0.8, AF4-AF9 inh -2.2, HNF4A DNA FP -0.2, Ecoli growth 0.71, RanGTP-Impb inh 4.1 and FGF22 binding inactive.
`O=C1CSC(=Nc2ccc(Cl)cc2)N1Cc1cccnc1` gave UCH37 inh 4.2, AF4-AF9 inh -0.7, HNF4A DNA FP 2.4, Ecoli growth 0.71, RanGTP-Impb inh -3.3 and FGF22 binding inactive.
`Cc1ccc(Oc2ccc(S(=O)(=O)Nc3ccc(C(=O)O)cc3)cc2)cc1` gave UCH37 inh 2.9, AF4-AF9 inh 1.8, HNF4A DNA FP 1.7, Ecoli growth 0.65 and FGF22 binding inactive.
For CCCCCCCCN1C(=O)[C@H](CC(=O)N2CCC(c3ccccc3)CC2)C[C@@]2(C(=O)OC)CCCCC=C12 the results were AF4-AF9 inh 0.3, HNF4A DNA FP 0.4 and FGF22 binding inactive.
For Cc1ccc(C(=O)CC(=O)COc2ccc(Cl)cc2)cc1 the results were UCH37 inh 2.8, AF4-AF9 inh -1.9, HNF4A DNA FP 0.6, Ecoli growth 0.58, RanGTP-Impb inh 1.2 and FGF22 binding inactive.
Cc1cc(C)c2cc(CN(Cc3nnnn3Cc3ccc(F)cc3)C3CCCC3)c(=O)[nH]c2c1 was read as UCH37 inh 0.8, HNF4A DNA FP -2.1, Ecoli growth 0.68, RanGTP-Impb inh 1.1 and Vif TR-FRET -12%&-6%.
[O-]/[N+](=N\Nc1ccc(Cl)cc1)c1ccccc1 was read as UCH37 inh 0.5, AF4-AF9 inh 0.0, HNF4A DNA FP -1.4, Ecoli growth 0.65, Vif TR-FRET 17% and FGF22 binding inactive.
`COc1cc(/C=C/C(C)=NNc2ccccc2)ccc1O` gave UCH37 inh 7.9, AF4-AF9 inh -1.4, HNF4A DNA FP -1.6, Ecoli growth 0.71, Vif TR-FRET 2% and FGF22 binding inactive.
CCOCCn1c(CN2CCCCC2)nc2c1c(=O)n(C)c(=O)n2C was read as UCH37 inh -5.8, AF4-AF9 inh -8.3, HNF4A DNA FP 1.4, Ecoli growth 0.74, RanGTP-Impb inh 6.1 and FGF22 binding inactive.
`O=C(/C=C/c1ccco1)Nc1ccc(N2CCCC2)cc1` gave UCH37 inh 7.4, AF4-AF9 inh 6.4, HNF4A DNA FP 3.6, Ecoli growth 0.72, RanGTP-Impb inh 2.5, Vif TR-FRET 31% and FGF22 binding inactive.
For Nn1c(-c2ccccn2)nnc1-c1ccccn1 the results were UCH37 inh -0.9, HNF4A DNA FP 1.3, Ecoli growth 0.73, RanGTP-Impb inh 2.0 and Vif TR-FRET 0%.
CCCCC1=CC2=CC(=O)C(C)(OC(=O)CC)C(=O)C2=CN1CCOC (centres undefined) was read as UCH37 inh 3.5, HNF4A DNA FP -6.3, Ecoli growth 0.7, RanGTP-Impb inh -3.9 and Vif TR-FRET 13%.
Screening c1ccc2c(c1)CCc1c-2nc2ccccc2c1N1CCOCC1 returned UCH37 inh 2.1, AF4-AF9 inh -11, HNF4A DNA FP -3.7, Ecoli growth 0.67, RanGTP-Impb inh 3.3, Vif TR-FRET -4% and FGF22 binding inactive.
Screening C=Cc1ccc(Cn2c(C)c(C(=O)NCc3ccc(Cl)c(Cl)c3)sc2=O)cc1 returned AF4-AF9 inh -1.0, HNF4A DNA FP 0.6 and FGF22 binding inactive.
For C=CCOc1ccc(CNc2nccs2)cc1 the results were UCH37 inh -2.8, HNF4A DNA FP -3.0, Ecoli growth 0.7 and RanGTP-Impb inh -2.7.
For Cc1nc(SCC(=O)c2ccccc2)c(C#N)c(-c2ccco2)c1C(=O)NCc1ccco1 the results were UCH37 inh 0.3, HNF4A DNA FP 5.5, Ecoli growth 0.76, RanGTP-Impb inh -0.9 and Vif TR-FRET 15%.
Screening CCOC(=O)C1=C(C)NC(C)=C(C(=O)OCC)C1c1ccc(C)o1 returned UCH37 inh -7.0, AF4-AF9 inh 0.4, HNF4A DNA FP 3.0, Ecoli growth 0.58, RanGTP-Impb inh -0.8, Vif TR-FRET -5% and FGF22 binding inactive.
Screening Cc1cccc2cc(CN(Cc3ccco3)C(=O)c3ccncc3)c(=O)[nH]c12 returned UCH37 inh 3.0, HNF4A DNA FP 0.7, Ecoli growth 0.74, RanGTP-Impb inh -1.9 and Vif TR-FRET 5%.
COc1ccc(NC(=O)CC2C(=O)N(c3ccc(F)cc3)C(=S)N2NC(=O)c2ccccc2)cc1 (centres undefined) was read as UCH37 inh 4.5, AF4-AF9 inh -1.9, HNF4A DNA FP 1.2, Ecoli growth 0.72, RanGTP-Impb inh 1.4 and FGF22 binding inactive.
Screening CC(C)NC(=O)c1ccccc1NC(=O)/C=C/c1ccc([N+](=O)[O-])cc1 returned UCH37 inh 2.8, HNF4A DNA FP 0.0, Ecoli growth 0.69, RanGTP-Impb inh 5.4 and Vif TR-FRET -2%.
`CC(Sc1nncn1C)C(=O)Nc1nnc(-c2ccccc2)s1` (centres undefined) gave UCH37 inh 0.5, AF4-AF9 inh 5.3, HNF4A DNA FP 6.6, Ecoli growth 0.74, RanGTP-Impb inh 3.8, Vif TR-FRET 2% and FGF22 binding inactive.
For COc1ccc(N2C(=NC(=O)c3ccccc3)SC3CS(=O)(=O)CC32)cc1 (centres undefined) the results were UCH37 inh 5.0, AF4-AF9 inh -1.8, HNF4A DNA FP 0.4, Ecoli growth 0.63, RanGTP-Impb inh 3.1 and FGF22 binding inactive.
`COc1ccc(C(=O)Nc2c(-c3cccs3)c(=O)c3ccccc3n2C)cc1` gave UCH37 inh 6.2, AF4-AF9 inh -3.0, HNF4A DNA FP -0.3, Ecoli growth 0.64, RanGTP-Impb inh -2.1, Vif TR-FRET -35% and FGF22 binding inactive.
For O=C(NCCc1ccc(F)cc1)Nc1ccc2c(c1)OCO2 the results were UCH37 inh -0.9, AF4-AF9 inh 0.9, HNF4A DNA FP 2.8, Ecoli growth 0.67, RanGTP-Impb inh -1.7, Vif TR-FRET 0% and FGF22 binding inactive.
Screening CCNC(=O)C(=O)NCC1OCCCN1S(=O)(=O)c1cccs1 (centres undefined) returned UCH37 inh 1.5, HNF4A DNA FP 1.2, Ecoli growth 0.68, RanGTP-Impb inh 1.6 and Vif TR-FRET -9%.
`O=C(Nc1ccccc1O)c1cc(S(=O)(=O)N2CCOCC2)ccc1Cl` gave UCH37 inh 1.0, HNF4A DNA FP 1.5, Ecoli growth 0.73, RanGTP-Impb inh 2.0 and Vif TR-FRET 8%.

Quoted at random: two entries already listed, in no set order.
Screening CC(C)NC(=O)c1ccccc1NC(=O)/C=C/c1ccc([N+](=O)[O-])cc1 returned UCH37 inh 2.8, HNF4A DNA FP 0.0, Ecoli growth 0.69, RanGTP-Impb inh 5.4 and Vif TR-FRET -2%.
Screening C=Cc1ccc(Cn2c(C)c(C(=O)NCc3ccc(Cl)c(Cl)c3)sc2=O)cc1 returned AF4-AF9 inh -1.0, HNF4A DNA FP 0.6 and FGF22 binding inactive.

The list is partial; the hit share may differ from the screen's.
